# Screens from PubChem.
# A1 inhib: A1 inhibition; AID 2241; 21,000 compounds, 0.51% hits; MEF A1-2A-BIM cells, caspase-Glo luminescence, 3 h; percent of clofoctol signal, DMSO as zero; caspase activation, % (no concentration beside the values);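 active = most replicate scores above 10, or exactly half above 10 with mean activity above 10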;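 also: effector caspase 3 and 7 activity cleaving a DEVD luciferin substrate; 50 nL library stock added to about 30 µL; numbers are from one replicate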
# BJeLR viability: compounds reducing viability of BJeLR cells; BJeLR fibroblasts viability, CellTiterGlo ATP luminescence, 48 h; HRASV12, hTERT and SV40 LT/ST transformed; viability loss activity score, % (concentration not given with the values); 30,000 compounds, 0.64% hits; AID 2275; in the data active = viability loss activity score above about 50%; about a fifth of its hits are not listed in these tables;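 also: higher score means fewer live cells and less ATP luminescence; stock transfer was 50 or 100 nL into about 30 µL; 0% = vehicle wells and 100% = a reference killing control; one replicate is shown; the record names a cut of 85%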
# An asterisk follows results filed as active; · = no result given.
SMILES	A1 inhib	BJeLR viability
COc1ccc(S(=O)(=O)Nc2cccc3c2O[C@H](CN(C)Cc2ccc(C(=O)O)cc2)[C@@H](C)CN([C@@H](C)CO)C3=O)cc1	·	12
C[C@H]1CN([C@@H](C)CO)C(=O)c2cc(NC(=O)Nc3ccc(F)cc3)ccc2O[C@H]1CN(C)CC1CCCCC1	0.6	0.2
C[C@@H]1CN([C@H](C)CO)C(=O)c2cccc(NC(=O)c3ccc(-c4nccs4)cc3)c2O[C@@H]1CN(C)Cc1ccc(Cl)c(Cl)c1	·	-4.0
COc1ccc(S(=O)(=O)N(C)C[C@@H]2Oc3c(NS(=O)(=O)c4ccc(Cl)cc4)cccc3C(=O)N([C@@H](C)CO)C[C@H]2C)cc1	·	1.4
C[C@H]1CN([C@@H](C)CO)C(=O)c2cc(NS(=O)(=O)c3cccs3)ccc2O[C@@H]1CN(C)Cc1ccc(Cl)c(Cl)c1	-1.0	-1.3
C[C@@H]1CN([C@@H](C)CO)C(=O)c2cc(NS(=O)(=O)c3ccc(Cl)cc3)ccc2O[C@@H]1CN(C)Cc1ccc(Oc2ccccc2)cc1	0.3	1.5
CC1(C)OC(=O)C(=CNc2ccccc2)C(=O)O1	-0.2	-0.6
CCOc1ccccc1C(=O)NCc1ccc2c(c1)OCO2	-0.3	-4.0

# Additional records:
SMILES	A1 inhib	BJeLR viability
C[C@@H]1CN([C@H](C)CO)C(=O)c2cccc(NC(=O)Nc3ccc(C(F)(F)F)cc3)c2O[C@H]1CN(C)S(=O)(=O)c1cn(C)cn1	·	-4.3
c1ccc(Cc2ccc[n+](Cc3ccccn3)c2)cc1	0.0	13
COc1ccc(NC(=O)N(C)C[C@@H]2Oc3c(NC(=O)c4cc(C)nn4C)cccc3C(=O)N([C@H](C)CO)C[C@@H]2C)cc1	·	-1.3
COc1ccc(S(=O)(=O)N(C)C[C@@H]2Oc3c(NC(=O)c4ccncc4)cccc3C(=O)N([C@@H](C)CO)C[C@@H]2C)cc1	·	1.5
CCS(=O)(=O)CCn1c([N+](=O)[O-])cnc1C	0.6	0.0
C[C@H](CO)N1C[C@H](C)[C@H](CN(C)Cc2ccncc2)Oc2ccc(N(C)C)cc2C1=O	0.7	-2.2
C[C@H](CO)N1C[C@H](C)[C@@H](CN(C)C)Oc2c(NC(=O)Nc3ccc(C(F)(F)F)cc3)cccc2C1=O	·	-4.5
Cc1cccc(C)c1NC(=O)Cn1c(S(=O)(=O)CC(N)=O)nc2ccccc21	·	-1.6

# More results.
SMILES	A1 inhib	BJeLR viability
C[C@H]1CN([C@@H](C)CO)C(=O)c2cccc(NC(=O)c3ccncc3)c2O[C@@H]1CN(C)Cc1ccc(C(=O)O)cc1	·	-1.7
Cc1cc(NC(=O)COc2ccccc2)no1	-0.4	-0.6
CSc1nc(/N=C/N(C)C)n(-c2ccccc2)n1	-0.1	0.3
Cc1ccccc1NC(=O)CCCn1sc2ccccc2c1=O	0.8	-2.1
CCc1ccc(/C=N/N2CCN(Cc3ccccc3)CC2)cc1	-1.3	2.1
CN(C(=O)COc1ccc(Oc2ccccc2)cc1)C1CCS(=O)(=O)C1 (centres undefined)	0.2	0.6
O=C(NC1CCN(C(=O)c2ccc(Cl)cc2Cl)CC1)c1ccccc1	0.0	·
CC1=CCC(c2cnc(-c3ccccc3)c(C)c2)N(C)C1c1ccccc1 (centres undefined)	-1.3	1.5

# Further compounds
SMILES	A1 inhib	BJeLR viability
Cc1ccc(N(CC(O)CN2C(=O)NC(C)(C)C2=O)S(=O)(=O)c2ccccc2)cc1 (centres undefined)	-0.2	-1.6
C[C@H](CO)N1C[C@H](C)[C@@H](CN(C)Cc2ccc(Oc3ccccc3)cc2)Oc2c(NS(=O)(=O)c3ccccc3)cccc2C1=O	·	-1.4
Cc1oc(C(C)(C)C)cc1C(=O)N1CCN(c2ncccc2C(F)(F)F)CC1	0.8	-5.7
C[C@@H]1CN([C@@H](C)CO)C(=O)c2cc(NS(=O)(=O)c3cn(C)cn3)ccc2O[C@@H]1CN(C)Cc1ccc2c(c1)OCO2	0.3	-2.6
C[C@@H]1CN([C@H](C)CO)C(=O)c2cccc(NC(=O)Nc3ccc(F)cc3)c2O[C@H]1CN(C)C(=O)Nc1ccc(C(F)(F)F)cc1	·	1.3
COc1ccc(/C=C2\Sc3ccccc3NC2=O)cc1	-2.3	-2.2
CC(C)NC(=O)N(C)C[C@@H]1Oc2ccc(NC(=O)Cn3cnnn3)cc2C(=O)N([C@H](C)CO)C[C@@H]1C	0.1	0.7
C[C@@H]1CN([C@@H](C)CO)C(=O)c2cccc(NS(=O)(=O)c3cccs3)c2O[C@H]1CN(C)Cc1ccncc1	·	-7.4

# Remaining list, next part:
SMILES	A1 inhib	BJeLR viability
C[C@@H]1CN([C@H](C)CO)C(=O)c2cccc(NC(=O)Nc3cccc4ccccc34)c2O[C@@H]1CN(C)Cc1ccc(Oc2ccccc2)cc1	·	3.4
CCN(C(=O)c1cnc(N2CCN(c3ncccn3)CC2)c2ccccc12)c1cccc(Cl)c1	·	4.5
O=C(NCCc1ccccc1)c1ccccc1CN1C(=O)c2ccccc2C1=O	0.4	0.5
C[C@H]1CN([C@@H](C)CO)C(=O)c2cc(NC(=O)Nc3ccc(F)cc3)ccc2O[C@H]1CN(C)S(=O)(=O)c1cccs1	-0.2	-3.0
CSc1cccc(NC(N)=O)c1	0.8	-1.4
C[C@H](CO)N1C[C@H](C)[C@@H](CN(C)Cc2ccc(C(=O)O)cc2)Oc2ccc(NC(=O)Nc3ccccc3)cc2C1=O	-0.3	-1.0
CN1CCN2c3ncccc3Cc3ccccc3C2C1 (centres undefined)	-0.2	-1.7
O=C1CCC(N2C(=O)c3ccccc3C2=O)C(=O)N1 (centres undefined)	-0.5	9.5

# Among those listed so far, three contain a COOH group.
SMILES	A1 inhib	BJeLR viability
COc1ccc(S(=O)(=O)Nc2cccc3c2O[C@H](CN(C)Cc2ccc(C(=O)O)cc2)[C@@H](C)CN([C@@H](C)CO)C3=O)cc1	·	12
C[C@H]1CN([C@@H](C)CO)C(=O)c2cccc(NC(=O)c3ccncc3)c2O[C@@H]1CN(C)Cc1ccc(C(=O)O)cc1	·	-1.7
C[C@H](CO)N1C[C@H](C)[C@@H](CN(C)Cc2ccc(C(=O)O)cc2)Oc2ccc(NC(=O)Nc3ccccc3)cc2C1=O	-0.3	-1.0

# The list continues.
SMILES	A1 inhib	BJeLR viability
Cc1noc(C)c1NC(=O)N(C)C[C@@H]1Oc2c(NC(=O)c3nc4ccccc4s3)cccc2C(=O)N([C@H](C)CO)C[C@H]1C	·	-7.2
C[C@@H]1CN([C@@H](C)CO)C(=O)c2cccc(NC(=O)NC3CCCCC3)c2O[C@H]1CN(C)Cc1ccc(Cl)c(Cl)c1	·	-1.5
CCOC(=O)c1cccc2c1-c1ccccc1/C2=N/O	·	-4.9
COc1ccccc1C(=O)Nc1c2c(nn1-c1ccc(Oc3ccccc3)cc1)CSC2	0.0	-7.6
C[C@H](CO)N1C[C@H](C)[C@H](CN(C)CC2CC2)Oc2c(NC(=O)c3cnccn3)cccc2C1=O	·	-1.2
Cc1ccc(S(=O)(=O)Nc2cccc3c2O[C@H](CN(C)S(=O)(=O)c2ccc(Cl)cc2)[C@H](C)CN([C@@H](C)CO)C3=O)cc1	·	-1.5
CCN(CC)c1cnn(-c2ccc(C(F)(F)F)cc2)c(=O)c1Cl	0.3	9.2
CC(C)Cc1ccc(S(=O)(=O)NC2CCCCC2C)cc1 (centres undefined)	·	2.7

# Full records as entered above:
# CCN(CC)c1cnn(-c2ccc(C(F)(F)F)cc2)c(=O)c1Cl as listed: A1 inhib: 0.3; BJeLR viability: 9.2
# C[C@@H]1CN([C@@H](C)CO)C(=O)c2cccc(NC(=O)NC3CCCCC3)c2O[C@H]1CN(C)Cc1ccc(Cl)c(Cl)c1 as listed: A1 inhib: ·; BJeLR viability: -1.5

# Going on with the list.
SMILES	A1 inhib	BJeLR viability
COc1cccc(-c2cc(C(F)(F)F)n3ncc(C(=O)N(C)CCc4ccccn4)c3n2)c1	-1.0	-1.3
C=CCSc1ccc(OCC(F)(F)F)c(C#N)c1OCC(F)(F)F	0.1	0.1
COc1ccc(S(=O)(=O)Nc2ccc3c(c2)C(=O)N([C@H](C)CO)C[C@H](C)[C@H](CN(C)Cc2ccc(C(=O)O)cc2)O3)cc1	0.0	-3.3
CC(=O)Nc1c(Br)c(C2CC2)nn1-c1ccccc1	0.8	-1.9
COC(=O)c1ccc(Nc2cc(C)nc3ccccc23)cc1	-0.7	62*
CCOC(=O)c1ccccc1NC(=O)CSc1nnc(Cc2cccn2C)n1-c1ccc(F)cc1	-0.2	-10
NC(=O)C1CCN(CC(O)COc2ccc(-c3csnn3)cc2)CC1 (centres undefined)	·	3.9
C[C@@H]1CN([C@H](C)CO)C(=O)c2cccc(NC(=O)c3nc4ccccc4s3)c2O[C@@H]1CN(C)C	·	2.2

# Remaining list, next part
SMILES	A1 inhib	BJeLR viability
C[C@H](CO)N1C[C@H](C)[C@@H](CN(C)Cc2ccc(Oc3ccccc3)cc2)Oc2ccc(NC(=O)CCC(F)(F)F)cc2C1=O	-0.4	-3.7
C[C@@H]1CN([C@H](C)CO)C(=O)c2cccc(NS(=O)(=O)c3ccc(F)cc3)c2O[C@H]1CN(C)Cc1ccc(-c2ccccc2)cc1	·	1.1
C[C@H]1CN([C@@H](C)CO)C(=O)c2cccc(NC(=O)C3CCOCC3)c2O[C@@H]1CN(C)C(=O)NC1CCCCC1	·	17
NNCCc1ccccc1	0.1	11
C[C@@H]1CN([C@H](C)CO)C(=O)c2cc(NC(=O)Nc3cccc4ccccc34)ccc2O[C@H]1CN(C)S(=O)(=O)c1ccc(Cl)cc1	2.1	4.9
CCCn1c(=N)n(CC(O)c2ccccc2)c2ccccc21 (centres undefined)	-0.2	-1.5
CN(C)CCNC(=O)c1cc2c(s1)-c1ccc(Cl)cc1SC2	39*	123*
C[C@H](CO)N1C[C@H](C)[C@@H](CN(C)Cc2ccc(C(F)(F)F)cc2)Oc2ccc(NS(=O)(=O)c3cn(C)cn3)cc2C1=O	-0.2	1.4

# (continued)
SMILES	A1 inhib	BJeLR viability
C[C@H]1CN([C@@H](C)CO)C(=O)c2cccc(NS(=O)(=O)c3ccccc3)c2O[C@@H]1CN(C)CC1CCCCC1	·	4.7
COc1ccc(S(=O)(=O)N(C)C[C@H]2Oc3c(NC(=O)C4CC4)cccc3C(=O)N([C@@H](C)CO)C[C@@H]2C)cc1	·	1.2
C[C@@H]1CN([C@@H](C)CO)C(=O)c2cc(NS(=O)(=O)c3ccc(Cl)cc3)ccc2O[C@@H]1CN(C)S(=O)(=O)c1ccc(Cl)cc1	-0.4	0.7
O=C(CSc1nccc(-c2cccs2)n1)Nc1ccccc1	·	5.2
Cc1noc(C)c1S(=O)(=O)Nc1ccc2c(c1)C(=O)N([C@@H](C)CO)C[C@@H](C)[C@@H](CN(C)S(=O)(=O)c1ccc(F)cc1)O2	-0.5	-6.8
COc1ccc(S(=O)(=O)N2CCc3ccccc3C2)cc1	0.8	-1.0
COc1ccc(Cc2nc3c4cnn(-c5c(F)c(F)cc(F)c5F)c4ncn3n2)cc1OC	1.4	-1.6
Cc1ccc(S(=O)(=O)Nc2ccc3c(c2)C(=O)N([C@H](C)CO)C[C@H](C)[C@@H](CN(C)C)O3)cc1	-0.2	5.6

# Following part.
SMILES	A1 inhib	BJeLR viability
Cc1noc(C)c1NC(=O)N(C)C[C@@H]1Oc2ccc(NC(=O)Cc3cn(C)c4ccccc34)cc2C(=O)N([C@H](C)CO)C[C@@H]1C	-0.2	-0.8
COc1ccc(S(=O)(=O)N(C)C[C@@H]2Oc3c(NC(=O)c4ccc(-c5nccs5)cc4)cccc3C(=O)N([C@@H](C)CO)C[C@H]2C)cc1	·	-1.3
FC(F)(F)c1cccc2c1[nH]c1nc3ccccc3nc12	·	3.9
CCc1nnc(SC(CC)C(=O)NCc2ccc(C)cc2)c2cc3sccc3n12 (centres undefined)	-0.3	-2.2
C[C@H](CO)N1C[C@H](C)[C@@H](CN(C)C(=O)Nc2ccccc2)Oc2ccc(NC(=O)Nc3cccc4ccccc34)cc2C1=O	-0.1	-2.5
CC(=O)NC1(C(=O)NC2CCCC2)CCCCC1	·	1.6
C[C@@H]1CN([C@H](C)CO)C(=O)c2cccc(NC(=O)c3cnccn3)c2O[C@@H]1CN(C)C	·	-4.2
COc1ccc(CN(C)C[C@H]2Oc3c(NC(=O)Nc4ccccc4)cccc3C(=O)N([C@H](C)CO)C[C@@H]2C)cc1	·	3.6

# Going on with the list:
SMILES	A1 inhib	BJeLR viability
CC(C)C(=O)Oc1ccc2c(c1)oc(=O)c1ccccc12	·	0.7
C[C@@H]1CN([C@@H](C)CO)C(=O)c2cc(NC(=O)Cc3cn(C)c4ccccc34)ccc2O[C@H]1CN(C)C(=O)Nc1ccc(C(F)(F)F)cc1	0.9	1.3
C[C@H]1CN([C@@H](C)CO)C(=O)c2cccc(NC(=O)Nc3ccccc3)c2O[C@@H]1CN(C)C(=O)Nc1cccc2ccccc12	·	3.1
COc1cc2c(=O)oc(-c3c(-c4c(F)cccc4Cl)noc3C)nc2c(OC)c1OC	-0.2	-7.6
O=C(C(Cc1ccccc1Cl)C(=O)N1CCc2ccccc21)N1CCc2ccccc21	-0.9	4.8
O=C(O)c1cc2cc(Cl)ccc2[nH]1	-0.3	-5.1
CCOC(=O)c1cnc2c(C#N)c(C)nn2c1C	0.1	-0.6
CN(C)c1nc(F)c(F)c(S(=O)(=O)c2ccccc2)c1F	·	-3.3
C[C@H](CO)N1C[C@H](C)[C@@H](CN(C)Cc2ccc(C(=O)O)cc2)Oc2ccc(NC(=O)Cc3cn(C)c4ccccc34)cc2C1=O	0.3	-4.1
C[C@H]1CN([C@@H](C)CO)C(=O)c2cc(NC(=O)Cc3cn(C)c4ccccc34)ccc2O[C@@H]1CN(C)Cc1ccc(C(F)(F)F)cc1	0.0	-4.0

# This is a subset; rates above refer to the full screens.
